Source: PubChem (several laboratories)
B2AR ag – activates human beta-2 adrenergic receptor causing internalization | 340,000 compounds, 0.43% hits | response, % (no concentration beside the values) | Am2.2-beta2AR cells, FAP receptor internalization, flow cytometry; reference of the scale not given here | P07550;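 active = response above a set limit, near 3 SD of response in nonfluorescent compounds, cut at about 42% in these data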;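 also: stock transfer was 100 nL into about 11 µL; a reference agonist was the positive control; negative values mostly stem from fluorescent compounds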
HNF4A DNA FP – change in binding of human HNF4 alpha to DNA; P41235; HNF4a-FITC DNA binding, fluorescence polarization, 1 h; activity change, % at 10 µM; 360,000 compounds, 0.3% hits; in the data active = activity change above about 30%, passing the limit was not always enough;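 also: controls were the assay level and a saturating level of protein; the project sought stronger binding though the title names inhibitors; some compounds called inactive have numbers as strong as hits; positive values seem to mean higher polarization but the record does not say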
UCH37 DUB inh – blocks the human deubiquitinase UCH37; AID 588478; purified proteasome/UCH37, Ub-AMC cleavage fluorescence; 330,000 compounds, 0.33% hits; inhibition, % (test concentration not listed);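 active = mean of two replicates above 20%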;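 also: 0% = compound-free wells with enzyme and 100% = wells lacking proteasome; stock transfer was 100 nL into about 20 µL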
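assay system = human UCH37 enzyme supplied as purified proteasome complex | amount = proteasome at 0.15 nM in the dispensed enzyme solution | schedule = 30 min compound-proteasome preincubation then 25 min substrate reaction, room temperature | measured by = fluorescence, ex 355 nm, em 460 nm | benchmarks = no-proteasome wells (full inhibition) and compound-free wells (no inhibition)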
Vif TR-FRET – inhibitors of Vif binding to APOBEC3G peptide, primary screen, biochemical, TR-FRET, GST-Vif 1-94, biotin-A3G peptide, dose response retest (AID 1117319); TR-FRET GST-Vif / biotin-A3G peptide binding; higher % means a stronger effect; test concentration not given here; strong numbers were not always called active; inhibition, %; hits with a dose series show IC50 in µM; 260,000 compounds, 0.57% hits;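 active = above the screen mean plus three standard deviations and confirmed in dose response; inconclusive = results disagree or hit not tested in dose response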;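 also: Vif residues 1-94 fused to GST binding biotinylated APOBEC3G peptide 110-148; 0% = full assay without inhibitor and 100% = GST in place of GST-Vif; retest series ran down from 100 µM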
E coli growth – inhibitors of Escherichia coli growth; OD600 absorbance (concentration not given with the values); OD600, 23 h; hits give low values; 330,000 compounds, 0.21% hits;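 active = OD600 absorbance below the run mean of sample wells minus 3.6 SD, in any replicate, cut at about 0.56 in these data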;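 also: stock transfer was 300 nL into about 60 µL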
Bfl-1 A1 inh – inhibitors of the anti-apoptotic protein A1, read as caspase activation; MEF A1-2A-BIM cells, Caspase-Glo 3/7 luminescence, 3 h; percent of clofoctol response, vehicle zero; caspase activation, % (concentration not given with the values); 330,000 compounds, 0.066% hits;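 active = over half of replicate activation scores above 10%, or exactly half above 10 with the replicate mean above 10; inconclusive = replicate mean below 10 yet half the replicates above 10; inactive = over half of replicates below 10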;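 also: wells of about 30 µL received 50 nL stock; many hits fall short of the cut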
LANA-H2A inh – blocks KSHV LANA binding to histone H2A/H2B | cell-free LANA-H2A/H2B peptide, fluorescence polarization | inhibition, % (no concentration beside the values) | 320,000 compounds, 0.6% hits | AID 2629; in the data active = inhibition mostly above about 10%, no sharp cut-off; inactive = mostly below about 6.7%;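 also: stock transfer was 7.5 nL into about 10 µL; 0% = median of vehicle wells and 100% = median of positive control wells; one replicate is shown; the record names a cut of 25% in any replicate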
Target sequence (Q9QR71 whole entry, looked up): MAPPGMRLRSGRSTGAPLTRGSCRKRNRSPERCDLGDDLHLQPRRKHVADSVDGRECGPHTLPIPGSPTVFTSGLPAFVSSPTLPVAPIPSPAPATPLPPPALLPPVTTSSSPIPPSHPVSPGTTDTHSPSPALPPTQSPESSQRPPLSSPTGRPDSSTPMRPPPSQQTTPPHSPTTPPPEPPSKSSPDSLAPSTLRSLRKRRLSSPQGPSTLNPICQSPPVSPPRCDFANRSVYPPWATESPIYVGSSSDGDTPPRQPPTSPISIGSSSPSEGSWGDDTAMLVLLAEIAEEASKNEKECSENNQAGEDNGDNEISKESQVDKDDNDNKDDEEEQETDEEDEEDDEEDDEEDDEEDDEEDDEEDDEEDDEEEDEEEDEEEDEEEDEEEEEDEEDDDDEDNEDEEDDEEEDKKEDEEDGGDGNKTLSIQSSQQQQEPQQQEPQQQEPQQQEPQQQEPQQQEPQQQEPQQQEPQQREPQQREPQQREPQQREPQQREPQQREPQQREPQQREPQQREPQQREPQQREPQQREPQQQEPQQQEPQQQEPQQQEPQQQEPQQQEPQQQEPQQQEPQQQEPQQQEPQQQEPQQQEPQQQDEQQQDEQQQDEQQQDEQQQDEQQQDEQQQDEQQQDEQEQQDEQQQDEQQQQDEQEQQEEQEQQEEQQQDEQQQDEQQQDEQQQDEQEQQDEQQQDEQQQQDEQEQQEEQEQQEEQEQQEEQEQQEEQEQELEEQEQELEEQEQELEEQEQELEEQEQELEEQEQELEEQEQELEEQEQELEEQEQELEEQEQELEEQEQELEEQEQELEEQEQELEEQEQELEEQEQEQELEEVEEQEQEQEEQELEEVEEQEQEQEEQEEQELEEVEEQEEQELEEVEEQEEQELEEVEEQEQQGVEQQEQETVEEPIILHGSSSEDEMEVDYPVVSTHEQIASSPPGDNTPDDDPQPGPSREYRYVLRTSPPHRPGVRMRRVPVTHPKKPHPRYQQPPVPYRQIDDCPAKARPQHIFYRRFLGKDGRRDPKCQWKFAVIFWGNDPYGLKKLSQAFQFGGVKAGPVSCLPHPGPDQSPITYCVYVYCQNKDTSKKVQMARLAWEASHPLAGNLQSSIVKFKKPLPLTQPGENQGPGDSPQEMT
Starred values were filed as active, the others as inactive; i = inactive; ? = inconclusive; / = no result given; & = joins results of further samples. Hits appear at their usual frequency; overall some 2.1% were active at least once.

SMILES	B2AR ag	HNF4A DNA FP	UCH37 DUB inh	Vif TR-FRET	E coli growth	Bfl-1 A1 inh	LANA-H2A inh
Cc1c(Br)c([N+](=O)[O-])nn1CC(=O)NCc1cccs1	6	-0.4	0.3	-3%	0.68	0.0	-2.4
O=C(Cc1c(F)cccc1Cl)NCCN1CCOCC1	6	-2.0	1.1	/	0.62	-0.6	-2.7
CCNC(=O)c1ccc(NS(=O)(=O)c2ccc3[nH]c(=O)[nH]c3c2)cc1	-3	-0.4	-0.2	/	0.69	0.4	-3.0
O=C(N/N=C/c1ccc(N2CCCCC2)o1)c1ccccc1[N+](=O)[O-]	5	-3.0	/	?	/	?	0.9
O=C(COC(=O)c1cccc(-n2cnnn2)c1)Nc1c(Cl)cccc1C(F)(F)F	-8	-3.6	-0.6	/	0.67	-0.8	0.0
O=C(CCCC1=NS(=O)(=O)c2ccccc2N1)N1CCN(c2ccc(Cl)cc2)CC1	3	0.0	1.0	7%	0.7	-0.5	1.2
CCOC(=O)N1C2c3ccccc3C(c3ccccc32)N1C(=O)OCC	-9	3.1	-3.6	-5%	0.71	/	/
O=C(c1ccc(Cl)cc1)N1CCCCC(Sc2nnc(-c3ccc4c(c3)OCO4)o2)C1=O (stereo unspecified)	3	-1.2	-2.1	1%	0.7	-7.4	2.5
COC(=O)c1ccccc1NC(=O)c1cnc2sccn2c1=O	-1	-1.2	5.4	-64%&-10%	0.66	1.3	1.6
CCOCCOc1cccc(C(=O)NC(c2ccccc2)c2ccccc2)c1	0	2.2	6.1	-4%	0.7	0.5	2.6
CCOC(=O)c1c(-c2cccs2)csc1NC(=O)C(C)(C)C	0	-0.8	4.7	31%	0.7	/	-2.5
CCCCNC(=O)c1onc(CSc2cccc(OC)c2)c1C(=O)NCCCC	-5	-2.5	1.8	/	0.7	-1.8	2.7
O=C(Nc1ccccc1C(=O)Nc1ccc(F)cc1)c1ccco1	0	-1.1	4.8	/	0.69	-1.9	-1.1
Oc1ccc(Cl)cc1CNCC1CCCCC1	-4	1.0	1.9	/	0.61	-0.1	6.1
COc1ccc(C(=O)NC2CC2)cc1OC1CCN(Cc2ccccc2)CC1	2	0.1	4.1	-6%	0.69	-0.1	-3.6
CCOc1ccc(C(=O)NCCC(=O)N2CCC3(CC2)NCCc2[nH]cnc23)cc1	-4	0.1	-1.2	/	0.66	0.0	0.8
Cc1cc(NCc2ccccn2)n2nc(C)c(-c3ccccc3)c2n1	-11	2.8	-19	-5%	0.67	-0.2	2.9
Cn1c(C(=O)NCCCN2CCN(c3cccc(Cl)c3)CC2)cc2c(=O)n(C)c3ccccc3c21	12	3.9	-2.0	-1%	0.71	-1.3	-0.6
Cc1cc(NC(=O)COc2ccc(C(C)(C)C)cc2)no1	-1	2.0	3.9	-2%	0.61	/	/
COc1ccc(CCNC(=O)COC(=O)Cn2cnc3ccccc32)cc1OC	-10	-0.8	5.2	/	0.69	0.1	-1.8
COc1cc(/C=C2\C(=O)ON=C2c2ccccc2)cc(OC)c1OC	2	-2.6	-4.7	-3%	0.72	-1.0	-4.3
CCc1nn(-c2cc(Oc3ccccc3)nc(-c3ccccc3)n2)c(N)c1C#N	-2	1.7	-0.5	4%	0.7	-0.2	5.5
Cc1cc(C)cc(NS(=O)(=O)c2ccc(NC(=S)NC(=O)c3ccc(Br)o3)cc2)c1	-3	6.2	5.0	11%	0.75	0.2	4.3
CN(C)CCN(C(=O)c1ccc(S(=O)(=O)N(C)c2ccccc2)cc1)c1nc2cc3c(cc2s1)OCO3	-1	-2.2	2.7	4%	0.69	-0.7	-0.9
CC(=O)N1CCc2cc(S(=O)(=O)Nc3ccccc3N3CCN(C)CC3)ccc21	-13	-0.1	2.3	-3%	0.7	0.0	0.0
COc1ccc(C(=O)Nc2cccnc2)cc1	2	-0.2	1.5	10%	0.63	-4.5	1.4
Cc1ccc(NC(=O)c2ccc(-n3cncn3)c([N+](=O)[O-])c2)cc1F	12	0.9	3.6	0%	0.63	-0.1	0.9
CC1=C(C(=O)N2CCCC(CCC(=O)NCc3ccccc3F)C2)OCCO1 (stereo unspecified)	-7	-2.0	0.3	-8%	0.67	-0.7	-4.5
O=C(N[C@H](CO)[C@H](O)c1ccc([N+](=O)[O-])cc1)C(Cl)Cl	2	-1.2	3.5	/	0.045*	0.9	1.8
O=C(Nc1ncccc1O)c1ccc(NS(=O)(=O)c2ccc3[nH]c(=O)[nH]c3c2)cc1	-1	0.6	4.2	8%	0.69	/	/
CC1Cc2ccccc2N1C(=O)CCn1c(=O)oc2ccccc21 (stereo unspecified)	-10	-0.4	0.9	2%	0.66	0.3	-5.4
CCCn1c(SCC(=O)Nc2ccc3c(c2)CCC3)n[nH]c1=O	-12	6.1	1.0	-2%	0.69	1.3	-1.1
Cc1c(Cl)c([N+](=O)[O-])nn1CC(=O)NCc1ccc(Cl)cc1	6	0.5	2.9	/	0.63	0.0	-2.1
Cc1cc(OC(=O)c2ccccc2[N+](=O)[O-])c([N+](=O)[O-])c(=O)[nH]1	12	-2.0	9.3	/	0.73	1.0	-1.8
COC(=O)C1=CN(C(C)C)C=C(C(=O)OC)C1c1cc(Br)c(OC)c(OC)c1	-7	2.5	i	4%	0.68	-0.5	-3.8
CN(C)CCCN(C(=O)c1ccc([N+](=O)[O-])o1)c1nc2cc3c(cc2s1)OCO3	6	-0.3	18	7%	0.64	0.8	3.3
NC(=O)c1ccc(NC(=O)COC(=O)C2COc3ccccc3O2)cc1 (stereo unspecified)	0	-0.8	4.9	-2%	0.71	-0.1	0.8
Cc1sc2ncnc(N3CCC(C(=O)Nc4ccc(Cl)cc4Cl)CC3)c2c1C	4	1.4	0.3	-9%	0.7	0.0	-1.6
CCN1CCN(C(=O)N(Cc2ccc(Cl)cc2)S(=O)(=O)c2ccc(C)cc2)CC1	2	-1.4	0.6	29%	0.66	-0.8	3.6
COc1cc(O)c(C(=O)CC(=O)c2ccncc2)c(OC)c1	0	0.1	-8.9	-7%	0.68	/	/
CCCCn1c(N)c(N(CC(C)C)C(=O)CN(C)S(=O)(=O)c2ccc(C)cc2)c(=O)[nH]c1=O	1	-0.7	-2.4	4%	0.64	-0.2	3.2
Cc1cccc(C2CC(c3ccc(Br)cc3)Nc3nc(N)nn32)c1 (stereo unspecified)	5	5.6	2.4	-4%	0.75	-0.1	-7.6
Oc1ccc2ccccc2c1C=Nc1cc(C(F)(F)F)ccc1N1CCCC1	-29	19	2.0	5%	0.71	-0.5	-7.1
CC(NC(=O)COC(=O)c1ccccc1F)C1CC2CCC1C2 (stereo unspecified)	-2	1.6	3.2	/	0.68	-0.3	0.4
COc1ccc(-c2nc(CSCC(=O)NC3CCCc4ccccc43)c(C)o2)cc1 (stereo unspecified)	9	-3.1	2.8	13%	0.69	1.0	-3.9
CCN(CC(=O)NCc1ccncc1)S(=O)(=O)c1ccc(OC)cc1	1	2.1	1.4	4%	0.69	-0.1	-0.5
CCOc1nc(CC(C)C)c2c(c1C#N)CC(C)(C)OC2	4	-0.1	4.4	-11%	0.7	0.0	-2.0
O=C(Nc1ccc(O)cc1)c1ccc(NC(=O)c2cccs2)cc1	42	6.4	5.3	/	0.7	-0.9	-5.5
COc1ccccc1N(C)S(=O)(=O)c1ccc(C(=O)NNC(=O)c2ccccc2O)cc1	6	0.0	4.5	27%	0.64	/	/
COc1ccc(NC(=O)CC(C)C)c([N+](=O)[O-])c1	5	5.9	4.4	22%	0.61	-0.5	1.1
CCOc1cc(/C=C(/NC(C)=O)C(=O)O)cc(Cl)c1OCc1ccc(Br)cc1	0	-0.6	-1.2	-4%	0.71	1.6	-0.6
CN1CCN(Cc2nc(-c3cccs3)no2)CC1c1ccccc1 (stereo unspecified)	-4	-1.0	7.0	/	0.65	1.1	2.3
CCCN1CCC(=O)N([C@H](COc2ccccc2)c2ccccc2)CC1	-3	-2.6	-1.5	/	/	-0.4	-5.0
Cc1nn(CC(=O)NC(=O)NC2CCCCC2C)c(=O)c(C#N)c1C (stereo unspecified)	9	0.9	-2.5	-4%	0.69	0.8	2.7
Cc1ccc(C(=O)Nc2ccc(CN3CCCCC3)cc2)c(C)c1	1	0.0	4.0	/	0.71	0.6	-1.1
CSc1cccc(NS(=O)(=O)c2cn(C)cn2)c1	-3	1.5	-0.3	/	0.68	3.9	-0.1
O=C(Nc1ccc(S(=O)(=O)N2CCCC2)cc1)C1CC(=O)N(CCc2ccc(F)cc2)C1 (stereo unspecified)	0	5.3	1.4	/	0.68	-1.3	2.1
O=C(NC1CCCCC1)NC1CC2CCC(C1)N2C(=O)NC1CCCCC1 (stereo unspecified)	/	/	0.2	3%	0.69	/	/
COCCCn1c(=O)cc(C)[nH]c1=S	0	2.6	4.1	-12%	0.67	-0.6	15*
CN1CCN(CCC(=O)Nc2ccccc2Cl)CC1	7	3.6	1.5	17%	0.73	0.8	-2.5
(list continues)
SMILES	B2AR ag	HNF4A DNA FP	UCH37 DUB inh	Vif TR-FRET	E coli growth	Bfl-1 A1 inh	LANA-H2A inh
COc1ccc(O)c(/C=N/c2nc3ccccc3n2C)c1	-1	-2.3	/	6%	/	-1.2	-3.3
CCOc1ccc(/C=N/NC(=O)CN2CCCCC2)cc1OCC	11	0.8	/	/	/	-7.9	11
N#Cc1nc(Cc2ccccc2)oc1NCc1cccnc1	-8	-2.6	-0.1	6%	0.74	0.6	2.6
CNC(=O)c1sccc1-n1cccc1	1	0.7	4.0	-2%	0.73	-0.7	0.2
Cc1nc(NC(=O)COc2ccc(Cl)cc2)sc1C(=O)N(C)C	/	/	6.1	7%	0.7	-0.2	3.8
Cc1cc2cc3c(N)[nH]nc3nc2cc1C	12	-3.7	-0.1	-1%	0.67	-3.7	0.7
CC(C)(C)C(=O)OCc1nc(-c2ccc(C(F)(F)F)cc2)cs1	3	5.6	5.0	-3%	0.64	0.3	-0.9
COC(=O)c1ccc2c(=O)n(Cc3ccc4c(c3)OCO4)c(SCC(=O)N3CCCC3)nc2c1	/	/	-0.2	19%	0.7	-0.1	3.1
CC1=C(C(=O)OC2CCCCC2)C(c2ccco2)n2ncnc2N1 (stereo unspecified)	-15	-0.1	0.9	-1%	0.7	0.1	-1.3
COc1ccccc1CNC(=O)COC(=O)/C=C/c1ccc2ccccc2n1	-5	-2.0	1.0	/	0.65	-0.6	17*
CCOC(=O)NC(=O)C(=CNc1cccc(OC)c1)C(=O)NC(=O)OCC	-5	0.8	4.2	3%	0.71	1.7	1.5
CC(=O)N=c1sc2cc(C)ccc2n1C	-5	1.4	0.7	1%	0.73	0.4	0.6
Cc1cccc(NC(=O)c2nc[nH]c2C(=O)N2CCN(c3ccccc3)CC2)c1	-12	5.1	-142	/	0.72	-0.7	-4.6
O=C(c1ccccc1)c1ccc(C(=O)O)c(C(=O)O)c1	2	3.1	-0.1	/	0.66	/	/
Cc1ccc(NC(=O)CCc2ccc(S(=O)(=O)NC3CCCCC3)cc2)cc1	1	1.5	3.8	-14%	0.77	-0.4	-1.3

One compound at a time, as listed above. Order of screens: B2AR ag	HNF4A DNA FP	UCH37 DUB inh	Vif TR-FRET	E coli growth	Bfl-1 A1 inh	LANA-H2A inh
COc1ccccc1CNC(=O)COC(=O)/C=C/c1ccc2ccccc2n1 across the screens: -5	-2.0	1.0	/	0.65	-0.6	17*
COC(=O)c1ccc2c(=O)n(Cc3ccc4c(c3)OCO4)c(SCC(=O)N3CCCC3)nc2c1 across the screens: /	/	-0.2	19%	0.7	-0.1	3.1
CCOc1ccc(/C=N/NC(=O)CN2CCCCC2)cc1OCC across the screens: 11	0.8	/	/	/	-7.9	11
Cc1ccc(NC(=O)CCc2ccc(S(=O)(=O)NC3CCCCC3)cc2)cc1 across the screens: 1	1.5	3.8	-14%	0.77	-0.4	-1.3
